RE007 growth inh – less growth of the S. pombe RE007 Vpr strain. S. pombe RE007 Vpr strain, BacTiter-Glo ATP luminescence, 24 h; control for the full effect not named in the record. Potency, µM (top dose mostly 92.2 µM), inactives show at the highest dose activity change, negative = less growth. hit rate 0.21% among 360,000. AID 651644; active = well fitted falling curve with a large enough effect; inconclusive = small, poorly fitted or top-dose-only effect; inactive = no such curve, though single readings can be large or run the other way;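 note: % is set by controls: 0 for no effect and ±100 for the full control effect; nearly all actives have a fitted effect of over 50% in size; the assay follows cell death caused by Vpr and the record does not say whether a fall means rescue or toxicity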
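Fission yeast strain RE007, carrying one chromosomally integrated HIV-1 vpr copy, was seeded at OD 0.01 in PMG+AL medium with 23 nL pinned compound. After 24 h at 30 °C and 99% humidity, viability was read by BacTiter-Glo luminescence.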
2A StopGo – FMDV 2A StopGo reporter, luciferase signal. human cells with a luciferase reporter of 2A StopGo recoding; control for the full effect not named in the record. Potency, µM (doses to about 57.9 µM), for the others: at the highest dose signal change, negative = less light. hit rate 1.2% among 410,000. AID 1159524; active = well fitted falling curve with a large enough effect; inconclusive = small, poorly fitted or top-dose-only effect; inactive = no such curve, though single readings can be large or run the other way; tested in HEK293T cells; note: % is set by controls: 0 for no effect and ±100 for the full control effect; nearly all actives have a fitted effect of over 45% in size; luciferase light after 4 h
SARS PLpro yeast – SARS-CoV PLP inhibition in yeast; S. cerevisiae expressing SARS-CoV PLpro, growth rescue; control for the full effect not named in the record; Potency, µM (series often up to 32.9 µM), for inactives: top-dose activity, positive = growth rescue; hit rate 0.19% among 330,000; AID 485353; active means well fitted rising curve with a large enough effect; inconclusive means small, poorly fitted or top-dose-only effect; inactive means no such curve, though single readings can be large or run the other way; note: 0% is about no effect; nearly all actives have a fitted effect of over 55% in size; growth read by luminescence after 48 h
MARV entry inh – blocks Marburg virus binding to or entry into cells | hit rate 1.8% among 300,000 | Potency, µM (doses to about 37.8 µM), for inactives: at the highest dose activity change, negative = inhibition, actives largely listed as inhibitors | AID 540276 | Marburg virus pseudotyped entry inhibition, cell reporter; control for the full effect not named in the record; about a third of the inactives were read at about 46 µM; active = well fitted inhibition curve with a large enough effect; inconclusive = small, poorly fitted or top-dose-only effect, or effect the other way; inactive = flat fitted curve, though single readings scatter; tested in HEK293 cells; about a fifth of its hits are not listed in these tables; note: % is set by controls: 0 for no effect and ±100 for the full control effect; luciferase read-out
NS1 function inh – inhibitors of influenza NS1 protein function | S. cerevisiae slowed by influenza A NS1, growth recovery by OD600 | Potency, µM (doses to about 46.1 µM), for inactives: top-dose activity, positive = more growth | hit rate 0.4% among 270,000 | AID 2326; active means well fitted rising curve with a large enough effect; inconclusive means small, poorly fitted or top-dose-only effect; inactive means no such curve, though single readings can be large or run the other way; note: nearly all actives have a fitted effect of over 50% in size
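S. cerevisiae expressing influenza A NS1, grown in glucose, washed, then diluted 1:100 into pH 6.0 -URA galactose medium with 23 nl compound. Growth recovery read as OD600; NS1-free strain serves as control.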
LASV entry inh – blocks Lassa virus binding to or entry into cells | Lassa virus pseudotype entry inhibition, cell reporter; control for the full effect not named in the record | hit rate 1.2% among 300,000 | Potency, µM (titrated, usually from 37.9 µM), without a hit: at the highest dose activity change, negative = inhibition, actives largely listed as inhibitors | AID 540256; active means well fitted inhibition curve with a large enough effect; inconclusive means small, poorly fitted or top-dose-only effect, or effect the other way; inactive means flat fitted curve, though single readings scatter; tested in HEK293 cells; note: % is set by controls: 0 for no effect and ±100 for the full control effect; nearly all actives have a fitted effect of over 50% in size; luciferase read-out
Cruzain Triton – cruzain (T. cruzi) inhibition with detergent. P25779. purified cruzain, Z-FR-AMC fluorescence, 0.01% Triton. Potency, µM, for the others: max response, negative = inhibition, usual class: inhibitors. hit rate 0.43% among 200,000. AID 1478;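 note: plate controls were neutral wells for no effect and buffer without enzyme for full effect; nearly all actives have a fitted effect of over 40% in size; top concentration of the series not given in the record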
Target sequence (P25779 123-467 limits assumed): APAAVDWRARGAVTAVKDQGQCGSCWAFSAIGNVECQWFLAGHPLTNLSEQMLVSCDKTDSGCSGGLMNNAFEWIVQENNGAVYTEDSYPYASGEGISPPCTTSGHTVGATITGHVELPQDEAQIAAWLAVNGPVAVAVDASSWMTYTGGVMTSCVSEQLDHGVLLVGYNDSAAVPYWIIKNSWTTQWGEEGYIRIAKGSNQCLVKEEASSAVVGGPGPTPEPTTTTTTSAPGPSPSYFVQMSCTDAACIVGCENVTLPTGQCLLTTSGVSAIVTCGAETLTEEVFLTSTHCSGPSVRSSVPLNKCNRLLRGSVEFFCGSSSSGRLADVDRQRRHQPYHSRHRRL
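Cruzain (1.5 nM) preincubated 15 min at RT with compound in 100 mM sodium acetate pH 5.5, 5 mM DTT, 0.01% Triton X-100. Reaction started with 2 uM Z-FR-AMC; AMC fluorescence (ex 360/em 450 nm) change over 60 s gave rate.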
Cruzain noTriton – inhibitors of Trypanosoma cruzi cruzain without detergent | P25779 | purified cruzain, Z-FR-AMC fluorescence, no detergent | Potency, µM, for inactives: max response, negative = inhibition, usual class: inhibitors | hit rate 2.3% among 200,000 | AID 1476;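 note: plate controls were enzyme without inhibitor for no effect and buffer without enzyme for full effect; nearly all actives have a fitted effect of over 40% in size; top concentration of the series not given in the record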
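Detergent-free condition (0.00005% Triton X-100) in acetate buffer pH 5.5 with DTT. 1.5 nM enzyme and compound were pre-mixed 15 min, then 2 uM Z-FR-AMC substrate added; reaction progress from fluorescence change between first and third reads (60 s).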
The depositor's hits bear a star; ? = inconclusive; nt = not tested or not shown; [ ] = another dose, or the depositor's remark. Unless noted, calls come from the whole dose curve; as a rule, active = well fitted curve in the direction sought with a large enough effect; inconclusive = small, poorly fitted or top-dose-only effect, or another doubt; inactive = no such curve, though single readings can be large; an effect the other way counts as inactive or inconclusive. Potency is the fitted concentration of half-maximal effect. No enrichment for hits, and some 4.7% of all compounds hit somewhere here.

Fields: RE007 growth inh	2A StopGo	SARS PLpro yeast	MARV entry inh	NS1 function inh	LASV entry inh	Cruzain Triton	Cruzain noTriton
[1] CCOCC(=O)Nc1c(C(=O)Nc2ccccc2OC)oc2ccccc12
    -23%	-20%	5%	?	-5%	-10%	31%[activator]	?
[2] Cc1ccc(NC(=O)c2nc[nH]c2C(=O)N[C@@H](C)c2ccccc2)cc1
    -9%	-13%	-5%	nt	13%	nt	nt	nt
[3] CN(CC(=O)Nc1ccccc1Cl)C(=O)Cn1cnc2ccc(Cl)cc2c1=O
    1%	-16%	6%	9%	nt	-7%	nt	nt
[4] C=CCNC(=O)c1ccc(CSc2nc3ccccc3s2)cc1
    -9%	-18%	-2%	?	18%	-25%[46.1 µM]	nt	nt
[5] Cc1ccc(C(=O)N/C(=C/c2ccco2)C(=O)N2CCCCC2)cc1
    -8%	52%[activator]	1%	0%[46.1 µM]	0%	5%[46.1 µM]	nt	nt
[6] CCc1ccc(NC(=O)COC(=O)Cn2cnc3ccccc32)cc1
    46%	7%	1%	20%	nt	6%[46.1 µM]	nt	nt
[7] COc1ccc(C2=NN(C(=O)c3ccccc3)C(c3cccc([N+](=O)[O-])c3)C2)cc1 (stereo not given)
    -11%	-16%	0%	nt	12%	nt	nt	nt
[8] COc1ccc(Cn2ccc3nc(C)c(C(=O)Nc4cc(OC)c(OC)c(OC)c4)cc3c2=O)cc1
    nt	-9%	nt	nt	nt	5%[46.1 µM]	0.5%	?
[9] CC(C)(C)c1nc(CN2CCOCC2)cc(CN2CCOCC2)c1O
    0%	-17%	-6%	-3%	-6%	-1%	3.9%	8%
[10] CCC(C)c1ccccc1NC(=O)CN(C)CCOc1ccc(Cl)cc1 (stereo not given)
    -24%	-14%	-5%	?	-4%	?	nt	nt
[11] CCc1[nH]nc(C(=O)N2CCCC(CCC(=O)N3CCN(c4ccccn4)CC3)C2)c1C (stereo not given)
    0%	?	-1%	-4%[14.2 µM]	8%	?	nt	nt
[12] CCOc1ccc(C2C(C(=O)OC)=C(C)NC3=C2C(=O)c2ccccc23)cc1OC (stereo not given)
    nt	-18%	nt	-20%[46.1 µM]	nt	0%[46.1 µM]	-11%	?
[13] CCN1CCN(C(c2cccc(F)c2)c2c(O)cc(C)n(CCOC)c2=O)CC1 (stereo not given)
    nt	-9%	nt	nt	nt	17%[46.1 µM]	-1.5%	?
[14] Fc1ccccc1N=C1Nc2cccc3cccc1c23
    25µM*	11%	-2%	8%[46.1 µM]	nt	10%[46.1 µM]	nt	nt
[15] COc1cc2[nH]c(O)c(C=O)c2cc1OC
    -16%	-5%	nt	0%[46.1 µM]	nt	9%[46.1 µM]	nt	nt
[16] CCCCS(=O)(=O)c1oc(-c2cccs2)nc1S(=O)(=O)c1ccc(F)cc1
    nt	32µM*	nt	?	nt	?	-9.8%	-3%
[17] CCCc1n(CC(O)COCC2CC=CCC2)c2ccccc2[n+]1C (stereo not given)
    -19%	-10%	0%	15%	-2%	?	nt	nt
[18] Cc1ccc(NC(=O)CCc2nnc3ccc(NCc4ccco4)nn23)nc1
    7%	-2%	-3%	6%[46.1 µM]	-10%	15%[46.1 µM]	nt	nt
[19] O=c1[nH]c(C2CCN(S(=O)(=O)c3ccc4c(c3)OCCO4)CC2)nc2c1nnn2Cc1ccccc1F
    1%	0%	-2%	nt	?	nt	nt	nt
[20] COc1cccc(C(=O)NC2CC(C)(C)NC(C)(C)C2)c1OC
    0%	-16%	6%	-21%[46.1 µM]	-5%	2%[46.1 µM]	nt	nt
[21] CCCCCN(C(=O)CCC(=O)OCC(=O)Nc1ccc(C)cc1F)c1c(N)n(CCCC)c(=O)[nH]c1=O
    8%	-14%	?	-9%	13%	-18%	nt	nt
[22] O=C(CSc1ccc(Br)c2cccc(Cl)c12)Nc1ccc(S(=O)(=O)Nc2nccs2)cc1
    9%	-12%	0%	?	10%	?	nt	nt
[23] O=[N+]([O-])c1cc(C(F)(F)F)ccc1N1CCN(S(=O)(=O)c2ccc3c(c2)CCCC3)CC1
    33%	?	-11%	?	-5%	-3%	-5.3%	-19%
[24] COc1cccc(OC)c1C(=O)N1CCN(Cc2ccncc2)CC1
    5%	-26%	0%	-17%[46.1 µM]	-1%	?	4.4%	-1%
[25] Cc1ccc(NCC(=O)N/N=C/c2ccc(C(=O)O)cc2)cc1
    4%	4%	-3%	nt	-4%	nt	nt	nt
[26] COc1cccc(/C=C/C(=O)OCC(=O)N2c3ccccc3NC(=O)C2(C)C)c1
    -8%	-22%	14%	-17%	-1%	-5%	-2.2%	-2%
[27] Cc1nnc(OC(C)C)c2nn(-c3ccccc3F)c(C)c12
    -2%	7%	12%	14%	0%	-2%	5.1%	2%
[28] COc1cc(C(=S)N2CCCC2)cc(Cl)c1O
    -3%	2%	-1%	26%	1%	-1%	-2.7%	-3%
[29] O=C(CCn1ccc2ccccc21)NC1CCCc2ccccc21 (stereo not given)
    12%	-12%	-3%	?	15%	-19%	3.0%	-23%
[30] COc1cccc(C2CC3(CC(C)(C)NC(=S)N3)Oc3cc(O)ccc32)c1 (stereo not given)
    7%	-26%	18%	-21%	1%	?	-4.8%	-10%
[31] Cc1cccc(C(=O)Nc2ccc(S(=O)(=O)N3CCC(c4nc5ccccc5s4)CC3)cc2)c1
    nt	-27%	nt	1%[46.1 µM]	nt	12%[46.1 µM]	-4.1%	1%
[32] CCOC(=O)C1CCN(C(=O)CC(C)c2ccccc2)CC1 (stereo not given)
    0%	35%[activator]	nt	18%	?	-10%	9.6%	1%
[33] CCC(=O)Nc1ccc(-c2ccc(N3CCC(C)CC3)nn2)cc1
    -2%	18%	-2%	nt	-15%	nt	nt	nt
[34] Cc1ccc(S(=O)(=O)N(CC(=O)NCc2ccc(F)cc2)C(=O)N2CCN(C)CC2)cc1
    -7%	-32%	-3%	11%	nt	-7%	nt	nt
[35] CCN(CC)c1ccc(NC(=O)CN2CCN(CC(=O)Nc3ccc(Cl)cc3)CC2)cc1
    nt	-22%	nt	nt	nt	2%[46.1 µM]	1.8%	-4%
[36] Cc1cc2cc(CNC(=S)Nc3ccc(OC(F)F)cc3)ccc2n1C
    11%	6%	-13%	-2%	25%	13%	2.0%	?
[37] O=S1(=O)NC(=NCCc2ccccn2)c2ccccc21
    1%	18%	0%	-2%[46.1 µM]	nt	-2%	nt	nt
[38] CCOC(=O)Cn1c(=O)oc2cc(S(=O)(=O)N3CCN(c4ccc(Cl)cc4)CC3)ccc21
    nt	-23%	nt	5%[46.1 µM]	nt	11%[46.1 µM]	0.8%	-14%
[39] O=C(C1CCC(=O)N(C2CCCC2)C1)N1CCC(Oc2ccccc2Cl)CC1 (stereo not given)
    -2%	-1%	5%	-19%	-4%	-12%	nt	nt
[40] COC(=O)c1ccc(NC(=O)c2ccccc2C(=O)Nc2ccc(C(=O)OC)cc2)cc1
    -8%	50%[activator]	nt	?	nt	-10%[46.1 µM]	nt	nt
[41] O=C(OCCOCn1cc(Br)c(=O)[nH]c1=O)c1ccccc1
    -7%	10%	nt	-5%[46.1 µM]	nt	-11%	nt	nt
[42] CCn1c2ccccc2c2cc(NC(=O)c3cc(OC)c(OC)c(OC)c3)ccc21
    -18%	-9%	-2%	1.4µM*	17%	?	-4.9%	?
[43] COc1ccc(CCNC(=O)CCc2c(C)c3cc4c(C)coc4c(C)c3oc2=O)cc1OC
    nt	-11%	nt	12%[46.1 µM]	nt	?	6.9%	?
[44] COc1nc(OC)nc(N2CCC(C(=O)NC3CCCCCC3)CC2)n1
    -2%	-16%	3%	2%	2%	-19%	-3.2%	5%
[45] COc1ccc(N2C(=O)CSC23C(=O)N(Cc2ccc(C)cc2)c2ccccc23)cc1Cl (stereo not given)
    nt	?	nt	nt	nt	?	-4.9%	?
[46] CCN(Cc1ccccc1)C(=O)c1cc(COc2c(F)cccc2F)on1
    8%	9%	0%	0%[46.1 µM]	-4%	?	nt	nt
[47] CC(C)(C)C1CCc2onc(C(=O)N3CCOCC3)c2C1 (stereo not given)
    -1%	4%	7%	8%	0%	-8%	-5.2%	7%
[48] Cc1cc(NC(=O)CSC2=Nc3ccccc3C3=NC(Cc4ccccc4)C(=O)N23)n[nH]1 (stereo not given)
    21%	-8%	13%	-9%	-16%	3%	-0.9%	-21%
[49] O=C(CCNC(=O)c1ccco1)NCc1ccccc1
    13%	4%	11%	?	5%	-1%	5.6%	3%
[50] COc1ccc(-n2nc(C(=O)N3CCN(c4ccc(F)cc4)CC3)c3c4ccccc4n(C)c3c2=O)cc1
    nt	-19%	nt	5%[46.1 µM]	nt	5%[46.1 µM]	-1.1%	-2%
[51] Cc1ccccc1C(=O)NCc1nc2cccnc2n1Cc1ccccc1
    nt	1%	nt	nt	nt	14%[46.1 µM]	-2.6%	4%

Record cards, as listed above. Values in the order: RE007 growth inh | 2A StopGo | SARS PLpro yeast | MARV entry inh | NS1 function inh | LASV entry inh | Cruzain Triton | Cruzain noTriton
O=C(CCn1ccc2ccccc21)NC1CCCc2ccccc21 (stereo not given) is listed as 12% | -12% | -3% | ? | 15% | -19% | 3.0% | -23%
CCn1c2ccccc2c2cc(NC(=O)c3cc(OC)c(OC)c(OC)c3)ccc21 is listed as -18% | -9% | -2% | 1.4µM* | 17% | ? | -4.9% | ?
COC(=O)c1ccc(NC(=O)c2ccccc2C(=O)Nc2ccc(C(=O)OC)cc2)cc1 is listed as -8% | 50%[activator] | nt | ? | nt | -10%[46.1 µM] | nt | nt
